VACV Venus inh – inhibitors of vaccinia virus (Venus reporter) | Vaccinia virus Venus reporter expression, fluorescence | Potency, µM (series often up to 36.5 µM), inactives show at the top dose activity change, negative = inhibition, actives largely listed as inhibitors | 330,000 compounds, 0.46% hits | AID 720580; active means well fitted inhibition curve with a large enough effect; inconclusive means small, poorly fitted or top-dose-only effect; inactive means no such curve, though single readings can be large or run the other way; tested in A549 cells; note: nearly all actives have a fitted effect of over 30% in size; inactives centre near -10
VACV mCherry inh – vaccinia inhibition (mCherry reporter); Vaccinia virus mCherry reporter infection, fluorescence; about a quarter of the inactives have no number; Potency, µM (highest dose often 36.5 µM), inactives show top-dose activity change, negative = inhibition, most hits filed as inhibitors; 310,000 compounds, 0.63% hits; AID 720579; active = well fitted inhibition curve with a large enough effect; inconclusive = small, poorly fitted or top-dose-only effect; inactive = no such curve, though single readings can be large or run the other way; tested in A549 cells; note: nearly all actives have a fitted effect of over 35% in size; inactives centre near -10
* = called active by the depositor; i = inactive; u = inconclusive; x = not tested or not shown; [ ] = dose if it differs, or a comment. % is set by controls: 0 for no effect and ±100 for the full control effect; potency is the fitted concentration of half-maximal effect.

SMILES	VACV Venus inh	VACV mCherry inh
CCOC(=O)c1c(NC(=O)CCCC(=O)O)sc2c1CCC2	-9.9%	-19.0%
O=C(/C=C/[C@H]1O[C@@H](n2ccc(=O)[nH]c2=O)[C@H](O)[C@@H]1O)NCc1cccnc1	-6.8%	i
COc1cccc(NC(=O)c2nn(C)c3c2CS(=O)(=O)c2ccccc2-3)c1	-8.6%	-10.4%
CCOC(=O)[C@H]1[C@H]2COc3ccc(OC)cc3[C@@H]2N2C(=O)c3cc(OC)ccc3NC(=O)[C@@]12C	-13.0%	-1.7%
CCCS(=O)(=O)N1CCC(C(=O)N2CCC3(CC2)OCCO3)CC1	-2.1%	x
COc1ccc(N(C(=O)c2cccnc2)S(=O)(=O)c2ccc3c(c2)n(C)c(=O)n3C)cc1	-7.1%	-12.0%
Cc1ccc(N)cc1N	-11.4%	i
CN(C)CCCNC(=O)c1cccc(-c2ccc3nncn3c2)c1	1.6%	35.4%[activator]
Cc1ccc(NC(=O)c2nc[nH]c2C(=O)NCCCNC(=O)c2[nH]cnc2C(=O)Nc2ccc(C)cc2)cc1	u	u
C#CCCCCCCCCC(=O)NCCCC	-6.7%	-16.7%

In the list so far, these have sulfur:
SMILES	VACV Venus inh	VACV mCherry inh
CCOC(=O)c1c(NC(=O)CCCC(=O)O)sc2c1CCC2	-9.9%	-19.0%
COc1cccc(NC(=O)c2nn(C)c3c2CS(=O)(=O)c2ccccc2-3)c1	-8.6%	-10.4%
CCCS(=O)(=O)N1CCC(C(=O)N2CCC3(CC2)OCCO3)CC1	-2.1%	x
COc1ccc(N(C(=O)c2cccnc2)S(=O)(=O)c2ccc3c(c2)n(C)c(=O)n3C)cc1	-7.1%	-12.0%

(further entries)
SMILES	VACV Venus inh	VACV mCherry inh
CC(=O)c1ccc(N2CCN(CC(=O)N(CC(C)C)c3c(N)n(CC(C)C)c(=O)[nH]c3=O)CC2)cc1	3.4%	-14.5%
COc1ccc(-c2cc(C(F)(F)F)n3nc(C(=O)N4CCN5CCCC5C4)cc3n2)cc1OC (centres undefined)	-5.3%	-13.6%
Cc1ccccc1NC(=O)NC1(C(=O)N2CCOCC2)CCCCC1	-4.2%	-1.2%
Cc1[nH]c2ccccc2c1/C=N/NC(=S)NC(C)C	-29.6%	-27.8%
COc1cc2c(C(=O)N3CCN(c4cccc(C)c4)C(C)C3)cn(CC(C)C)c(=O)c2cc1OC (centres undefined)	-9.6%	-13.9%
O=C(/C=C(O)/C=C/c1ccc(O)cc1)/C=C/c1ccc(O)cc1	82.5%[activator]	i
CCCC1=C(C(=O)OCC)C(c2ccc(F)cc2)n2ncnc2N1 (centres undefined)	-14.9%	-25.8%
O=C(c1ccc2ncsc2c1)N1CCN(c2ccccc2Cl)CC1	-10.6%	-1.3%
Cc1cc(C)c2[nH]c(=O)c(CN(CC3CCCO3)S(=O)(=O)c3ccc4c(c3)OCCO4)cc2c1 (centres undefined)	-21.7%	u
C[C@@H]1CN([C@H](C)CO)C(=O)CCCn2nncc2CO[C@H]1CN(C)Cc1ccccc1C(F)(F)F	-15.1%	-2.1%
Cc1ccc(S(=O)(=O)N2CCOCC2)cc1NC(=O)COC(=O)c1cc(=O)[nH]c2ccccc12	-4.7%	i
N#CC(C(=O)Nc1ccccc1)=C1CCCCC1	-8.4%	-11.5%
COc1cccc(-c2cnc3c(NC(C)=O)cc(-c4ccc(C(=O)NC5CC5)cc4)cn23)c1	-6.3%	-19.3%
N#C/C(=C\c1cccn1S(=O)(=O)c1ccccc1)S(=O)(=O)c1ccc(F)cc1	0.0%	15.6%
Cc1ccc(Cl)cc1NC(=O)CN1CCN(C(=O)C2CCCO2)CC1 (centres undefined)	-14.8%	-12.5%
O=C(NCCCn1ccnc1)C1CC(c2cccc(Br)c2)=NO1 (centres undefined)	-3.2%	i
COCCn1c(SCC(=O)c2ccccc2)nc2cc(C(=O)NC3CCCC3)ccc2c1=O	-4.9%	-2.1%
COC(=O)CCN(Cc1ccccc1)S(=O)(=O)c1ccccc1Br	-4.1%	i
COc1ccc(-c2nnc(SCc3cc(=O)c4cc(C)cc(C)c4[nH]3)n2C)cc1	u	u
COc1ccccc1CNC(=O)c1cnc(SC)nc1C	-2.6%	2.5%
COc1ccc(N=C2SC(C(=O)Nc3ccc(OC)cc3)CC(=O)N2CCN2CCOCC2)cc1 (centres undefined)	-6.2%	i
CC(C)c1nc(NCCO)c2nnn(Cc3ccccc3)c2n1	-5.1%	-2.1%
Cc1ccc(NC(=O)Cn2nnc(C(=O)NCc3ccco3)c2N)cc1	-7.0%	-14.8%
CC1(C)Cc2ccccc2-c2nnc(SCc3ccccc3)n21	-28.0%	-29.5%
O=C(c1ccc2ccccc2c1)N1CCN(S(=O)(=O)/C=C/c2ccccc2)CC1	-8.3%	-20.2%
CC(=O)c1ccc(S(=O)(=O)Nc2ccc(C(=O)NC3CC3)cc2)cc1	-0.6%	-11.4%
c1ccc(Nc2nc(-c3cccs3)cs2)nc1	-23.4%	-32.3%
CC1CCN(C(=O)CSc2nnc3c(n2)[nH]c2ccc(F)cc23)CC1	-1.3%	3.1%
CN(C)c1cccc(C(=O)NNC(=O)NC2CCCCC2)c1	-1.6%	-12.2%
COC(=O)c1ccc2nc(-c3ccc(OC)c(OC)c3)c(CC3CCCCC3)n2c1	-21.8%	3.2%
CCC(C)NCC(=O)Nc1cc(S(=O)(=O)N(CC)c2ccccc2)ccc1Cl (centres undefined)	-28.0%	i
CCc1ccc(-c2nc(CSCC(=O)NCc3ccccc3OC)c(C)o2)cc1	-3.9%	7.8%
COc1ccc2oc(=O)c(-c3csc(-c4ccc(Br)cc4)n3)cc2c1	3.2%	-0.9%
O=C(CN1C(=O)CSc2ccc(S(=O)(=O)N3CCOCC3)cc21)NCCCN1CCOCC1	-14.0%	-25.3%
O=C(Nc1ccc2c(c1)C(N1CCOCC1)c1ccccc1-2)C(F)(F)F (centres undefined)	-4.8%	-13.0%
Cc1ccc(C)c(N2CCN(S(=O)(=O)c3cccc4cccnc34)CC2)c1	1.6%	-6.8%
O=C(Nc1cccnc1)c1sc(Nc2ccccc2)nc1-c1ccccc1	u	-8.1%
O=C(NC1CCCN(Cc2ccc(Cl)cc2)C1)c1cnc2ccccn2c1=O (centres undefined)	-23.1%	-17.3%
CC(=O)N1CCCC(C)(C(=O)Nc2ccc3oc(C)nc3c2)C1 (centres undefined)	1.0%	i
CCOC(=O)c1c(NC(=S)NC(=O)c2ccc(Cn3cc(Cl)cn3)o2)sc2c1CCC(C)C2 (centres undefined)	28.2µM*	20µM*
O=C(Nc1ccc(C(F)(F)F)cc1)N1CCN(c2ccnc3cc(Cl)ccc23)CC1	-28.8%	-6.2%
COC(=O)c1ccccc1NC(=O)Nc1cc(C(C)(C)C)on1	-18.0%	i
COc1ccc2c(C)cc3nncn3c2c1	-2.8%	i
O=C(CSc1nncs1)NC(=O)NC1CCCC1	-10.0%	-7.9%
CCN(c1ccccc1)S(=O)(=O)c1ccc2[nH]cc(C(=O)NC3CCCCC3)c(=O)c2c1	-8.7%	-22.7%
Cc1nc(C(=O)N2CCCC(C(=O)c3cccc(OC(C)C)c3)C2)cs1 (centres undefined)	-17.4%	i
O=C(c1ccccc1)N1CCN(c2ccc([N+](=O)[O-])c(NCc3ccco3)c2)CC1	-26.9%	x
Cc1cc2oc(C(=O)Nc3sc4c(c3C(=O)NCc3ccco3)CCC4)cc(=O)c2cc1C	-14.4%	-8.3%
OCCOCCn1c(C2CCCN2c2nc(-c3ccc(F)cc3)cs2)nc2cc(C(F)(F)F)ccc21 (centres undefined)	u	-22.2%
Cc1ccc(S(=O)(=O)N2CCC(C(=O)NNC(=O)c3ccccc3O)CC2)cc1	-22.3%	u

(next part)
SMILES	VACV Venus inh	VACV mCherry inh
CSc1ccc(C2=CC(=O)C[C@H](c3ccc(Cl)cc3)C2)cc1	-14.7%	-22.5%
Cc1ccc(NC(=O)COc2ccc(-c3nn(C)c(=O)c4ccccc34)cc2)cc1	u	u
O=C(Nc1nnc(-c2ccc(Br)cc2)o1)C1=COCCO1	-13.5%	-0.6%
Fc1ccc(-c2nnc(CSc3nnc4ccccn34)o2)cc1	-12.3%	-8.0%
CC(C)n1cc(NC(=O)C2CC(c3cccc(Br)c3)=NO2)cn1 (centres undefined)	u	u
CNC(=O)CSc1cn(CC(=O)N(C(C)C)C(C)C)c2ccccc12	-1.5%	-1.5%
Cc1cccc(-c2nc3ccc(C(=O)N4CCC5(CC4)OCCO5)cc3nc2-c2cccc(C)c2)c1	u	-10.7%
COc1ccc(-n2nc(C(=O)O)c3ccccc3c2=O)c(OC)c1	-8.2%	-9.7%
O=C(CCCSc1nc2ccccc2[nH]1)Nc1ccccc1	-26.4%	u
Cc1ccc(C(=O)OCC(=O)NCc2ccco2)cc1	1.9%	1.1%
c1ccc(-c2nn3c(-c4ccccc4)nnc3s2)cc1	-24.6%	-24.5%
CC(C)c1ccc(SCc2noc(C(=O)NCC3CCCO3)c2C(=O)O)cc1 (centres undefined)	-2.7%	i
COc1ccc(C2CC(C)(c3ccc(OC)cc3)Nc3ccccc3N2)cc1 (centres undefined)	u	u
CN(C)/C=C(/C(=O)c1ccccc1Cl)S(C)(=O)=O	-0.8%	-12.8%
O=C(CCC1CCCN(C(=O)c2ccoc2)C1)NCc1ccccc1F (centres undefined)	-8.0%	i
Cn1c(SC2CCCCC2=O)nnc1-c1ccccc1F (centres undefined)	2.4%	0.7%
CC(=O)Oc1ccccc1Cn1c(C)c(C(=O)NCc2ccc(Cl)c(Cl)c2)sc1=O	-10.7%	-4.5%
COc1ccc(NC(=O)c2sc3nc(Cc4ccccc4)cc(C(F)(F)F)c3c2N)cc1OC	-19.8%	i
O=C(Nc1cccc(Cl)c1)N(Cc1nc2ccccc2c(=O)[nH]1)Cc1cccs1	u	u
COCCN1C(=O)N[C@@H](c2cccs2)C(C(C)=O)=C1C	-7.6%	-9.2%
Cc1cc(Nc2ccc(O)cc2)n2c(nc3ccccc32)c1C#N	u	u
COc1ccc(C(=O)Nc2ccc(C(=O)NCC3CCCO3)cc2)c(OC)c1OC (centres undefined)	-5.5%	-18.1%
COc1ccc(OCC(=O)Nc2nnc(C)s2)cc1	0.0%	i
O=C(NCc1ccc2c(c1)OCO2)C1CCCN(S(=O)(=O)c2cccs2)C1 (centres undefined)	-17.3%	u
CC1=C(C(N)=O)C(c2cccc(Br)c2)n2nc(SCc3ccccc3)nc2N1 (centres undefined)	-8.3%	-4.2%
Cc1cccc(-n2cc(C#N)c(=O)[nH]c2=O)n1	0.4%	u
Cc1ccc(NC(=S)NNC(=O)c2nnn(-c3ccccc3)c2C)cc1	-12.1%	-3.4%
CCC(=O)c1ccc(OCc2ccccc2)c(OC)c1	-13.5%	-19.9%
CCCCN(C(=O)C1=COCCO1)c1c(N)n(CCC)c(=O)[nH]c1=O	-4.1%	-13.1%
C/C(=N/NS(=O)(=O)c1ccc(C)cc1C)c1ccc2c(c1)OCO2	7.4%	-12.0%
NC(c1csc(NC(=O)Nc2ccccc2Oc2ccccc2)n1)c1ccccc1Cl (centres undefined)	u	-10.8%
Cc1ccc(-c2csc(NC(=O)Cc3cccs3)n2)cc1C	-14.3%	-13.6%[1.46 µM]
COc1ccccc1C(=O)CSc1nccn1C	-7.1%	-20.8%
Cc1ccc(S(=O)(=O)NCC(Nc2cccc(Cl)c2)c2ccccc2)cc1 (centres undefined)	u	u
Cc1cccc(C)c1OCC(=O)N1CCC(c2nc3ccccc3o2)CC1	-6.7%	0.1%
COCCNC(=O)C1(C)Cc2c(-c3ccc(NC(C)=O)cc3)ccnc2O1 (centres undefined)	2.2%	21.8%
CCOC(=O)c1cccc(NC(=O)CSc2nc3ccccc3c(=O)n2CC)c1	-3.0%	-2.1%
O=C(NC(=S)Nc1ccccc1C(=O)O)c1cncc(Br)c1	-4.6%	-3.9%
Cc1ccc(OCC(=O)OCc2cc(=O)n3nc(C4CCCCC4)sc3n2)cc1	-11.2%	-18.5%
CC(=O)N1c2ccc(S(=O)(=O)NCCC(=O)NCCc3cccc(C)c3)cc2CC1C (centres undefined)	9.3%[7.34 µM]	-13.9%[7.34 µM]
COc1ccc(C(=O)NCC(=O)NCC(=O)OCc2ccc(Br)cc2)cc1	-4.7%	i
CCCCOc1ccc(C(=O)NCC2(N3CCN(C)CC3)CCCCC2)cc1	-17.9%	-14.2%
COC(=O)c1ccccc1NC(=O)c1cc2c(-c3ccc(OC)c(OC)c3)nn(C)c2s1	-12.2%	-8.5%
COc1ccc(-c2cc(C(F)(F)F)nc(SCC(=O)NCc3ccc(OC)c(OC)c3)n2)cc1	-0.5%	-3.9%
CC(=O)N1c2ccc(S(=O)(=O)N(C)CC(=O)N(Cc3ccccc3)C(C)C)cc2CC1C (centres undefined)	-17.9%	-10.2%
Cc1ccc(C)c(NC(=S)NNC(=O)c2csc(C)c2)c1	-12.5%	-21.4%
O=C(NCCc1ccc(Cl)cc1)Nc1cccc(Cl)c1	u	x
O=C(CSCc1ccc(Cl)cc1)Nc1nccs1	-11.5%	-11.1%
Cc1cc(Cl)ccc1OCC(=O)NC1CCCC1	-21.0%	-27.2%
COc1ccccc1N1CCN(C(=O)c2ccc(CS(=O)c3ccccc3C)o2)CC1 (centres undefined)	-20.4%	-26.7%
COc1ccc(CCN(Cc2nc(-c3ccccc3)no2)Cc2nc(-c3ccccc3)no2)cc1OC	-10.4%	-13.4%
O=C(NCc1ccccn1)c1ccc(OC2CCN(Cc3ccccc3)CC2)cc1	-11.1%	i

Screens as filed in PubChem.
